NOMO-1 viab = STK33 inhibitor candidate reducing NOMO-1 cell viability | inhibition, % (concentration not given with the values) | AID 2330 | actives 7.5% (n = 37,000) | NOMO-1 AML viability, CellTiter-Glo luminescence, 72 h;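 active = most replicates above 80%; inconclusive = exactly half above 80%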;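 also: wells of about 30 µL received 25 nL stock; 0% = median of vehicle wells and 100% = reference inhibitor level; the first replicate is given; inactives centre near 10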
Active calls of the source: *; ? = inconclusive. Not all compounds are listed. The share of hits here may be higher or lower than overall.

The opening two records, ahead of the listing:
SMILES	NOMO-1 viab
C[C@@H]1CN([C@@H](C)CO)C(=O)c2cc(NS(=O)(=O)c3cccs3)ccc2O[C@@H]1CN(C)C(=O)Nc1ccccc1	5
C[C@H]1CN([C@@H](C)CO)C(=O)c2cccc(NS(=O)(=O)c3ccc(Cl)cc3)c2O[C@H]1CN(C)C(=O)Nc1ccc(C(F)(F)F)cc1	18

The list itself (from the top)
SMILES	NOMO-1 viab
C[C@@H]1CN([C@@H](C)CO)C(=O)c2cc(NS(=O)(=O)c3cccs3)ccc2O[C@@H]1CN(C)C(=O)Nc1ccccc1	5
C[C@H]1CN([C@@H](C)CO)C(=O)c2cccc(NS(=O)(=O)c3ccc(Cl)cc3)c2O[C@H]1CN(C)C(=O)Nc1ccc(C(F)(F)F)cc1	18
C[C@@H]1CCCCO[C@H](CN(C)Cc2ccc(C(F)(F)F)cc2)[C@@H](C)CN([C@H](C)CO)C(=O)c2cc(NC(=O)Nc3cccc4ccccc34)ccc2O1	64
Cc1c(Cl)cccc1N(CC(=O)O)S(=O)(=O)c1ccccc1	1
COc1ccccc1NC(=O)C(C)NS(=O)(=O)c1ccc(F)cc1 (configuration not stated)	14
Cn1c(SCC(=O)Nc2ccc(Cl)cc2Cl)nnc1C12CC3CC(CC(C3)C1)C2	45
COc1ccc([N+](=O)[O-])cc1N(CC(=O)N1CCOCC1)S(C)(=O)=O	-2
C[C@H](CO)N1C[C@H](C)[C@H](CN(C)C(=O)Nc2ccc(C(F)(F)F)cc2)Oc2ccc(NC(=O)Nc3ccc(C(F)(F)F)cc3)cc2C1=O	74
Cc1nn(CC(O)COc2ccc(C(=O)c3ccccc3)cc2)c(C)c1Br (configuration not stated)	4
C[C@@H]1CN([C@@H](C)CO)C(=O)c2cccc(NC(=O)CCCCCC(=O)Nc3ccccc3N)c2O[C@H]1CN(C)Cc1ccc2c(c1)OCO2	117*
CCc1c(C)sc(NC(=O)c2cc(-c3ccccn3)nc3c(C)cccc23)c1C(=O)N1CCCCC1	21
Cc1noc(C)c1NC(=O)Nc1ccc2c(c1)C(=O)N([C@H](C)CO)C[C@H](C)[C@H](CN(C)Cc1ccncc1)O2	-3
Cn1c(SCC(=O)Nc2cccc(Br)c2)nnc1-c1ccc(Cl)cc1	5
CC12CC3(C)CC(C)(C1)CC(CN=Cc1ccc(O)cc1)(C2)C3	112*
C[C@@H]1CN([C@H](C)CO)C(=O)Cc2cc(NC(=O)Cc3cn(C)c4ccccc34)ccc2O[C@H]1CN(C)Cc1ccc(C(=O)Nc2ccccc2N)cc1	9
Cc1ccc(C(=O)Nc2sc3c(c2C(=O)N(C)C)CCCCC3)cc1	33
Cc1ccc(S(=O)(=O)N(C)C[C@H]2Oc3ccc(NC(=O)c4ccncc4)cc3C(=O)N([C@@H](C)CO)C[C@@H]2C)cc1	21
CC(C)NC(=O)Nc1ccc2c(c1)C(=O)N([C@@H](C)CO)C[C@@H](C)[C@H](CN(C)Cc1ccc(-c3ccccc3)cc1)O2	36
C[C@H]1CC(=O)C2=C(C1)C(O)C(O)[C@@]1(O)[C@H]2C(=O)c2cccc(O)c2[C@@H]1O (some centres not stated)	13
C[C@@H]1CN([C@@H](C)CO)C(=O)c2cc(NC(=O)Nc3ccc(C(F)(F)F)cc3)ccc2O[C@@H]1CN(C)Cc1ccc(Cl)c(Cl)c1	108*
COC(=O)c1ccccc1NC(=O)C(C)Oc1ccccc1F (configuration not stated)	8
C[C@@H]1CN([C@H](C)CO)C(=O)c2cc(NC(=O)C3CCCCC3)ccc2O[C@@H]1CN(C)C(=O)Nc1ccc(F)cc1	-4
C[C@@H]1CN([C@@H](C)CO)C(=O)c2cccc(N(C)C)c2O[C@@H]1CN(C)Cc1ccc(Cl)c(Cl)c1	56
COc1ccc(-c2ccc(CCC(=O)O)n2-c2ccc(C(=O)O)cc2)cc1	3
COc1ccc(S(=O)(=O)Nc2ccc3c(c2)CC(=O)N([C@H](C)CO)C[C@@H](C)[C@H](CN(C)S(=O)(=O)c2ccccc2)O3)cc1	2
O=C(CSc1nnc(-c2ccc([N+](=O)[O-])cc2)n1-c1ccccc1)N1CCOCC1	13
COc1ccc(NC(=O)Nc2ccc3c(c2)C(=O)N([C@@H](C)CO)C[C@@H](C)[C@H](CN(C)C(=O)NC2CCCCC2)O3)cc1	-3
C[C@@H]1CN([C@@H](C)CO)C(=O)c2cc(NS(=O)(=O)c3ccccc3)ccc2O[C@H]1CN(C)Cc1ccc(C(=O)O)cc1	10
O=C(CCCN1C(=O)c2ccccc2C1=O)Nc1ccc(Cl)c(C(F)(F)F)c1	-3
Cc1cc(Cl)ccc1OC(C)C(=O)Nc1cc(C(=O)O)cc(C(=O)O)c1 (configuration not stated)	-11

Three of the compounds above, with bars between the fields.
canonical_smiles | NOMO-1 viab
Cc1ccc(C(=O)Nc2sc3c(c2C(=O)N(C)C)CCCCC3)cc1 | 33
C[C@H]1CC(=O)C2=C(C1)C(O)C(O)[C@@]1(O)[C@H]2C(=O)c2cccc(O)c2[C@@H]1O (some centres not stated) | 13
COc1ccc(S(=O)(=O)Nc2ccc3c(c2)CC(=O)N([C@H](C)CO)C[C@@H](C)[C@H](CN(C)S(=O)(=O)c2ccccc2)O3)cc1 | 2

(continued)
SMILES	NOMO-1 viab
COc1ccc(NC(=O)Nc2ccc3c(c2)CC(=O)N([C@H](C)CO)C[C@H](C)[C@H](CN(C)C(=O)Nc2cccc4ccccc24)O3)cc1	19
COc1ccc(S(=O)(=O)N(C)C[C@@H]2Oc3c(NC(=O)Nc4c(C)noc4C)cccc3C(=O)N([C@@H](C)CO)C[C@@H]2C)cc1	17
COc1ccc(CN(C)C[C@@H]2Oc3ccc(NC(=O)Nc4ccc(OC)cc4)cc3CC(=O)N([C@H](C)CO)C[C@H]2C)cc1	22
Cc1nnc(Nc2ccc(OCC(=O)N3CCN(c4ccccc4)CC3)cc2)c2ccccc12	88*
C[C@@H]1CN([C@@H](C)CO)C(=O)Cc2cc(NC(=O)CCC(F)(F)F)ccc2O[C@@H]1CN(C)Cc1ccc(C(F)(F)F)cc1	27
CNC[C@@H]1Oc2ccc(NC(=O)Nc3ccc(F)cc3)cc2C(=O)N([C@H](C)CO)C[C@@H]1C	-1
COc1ccc(NC(=O)Nc2ccc3c(c2)C(=O)N([C@H](C)CO)C[C@H](C)[C@@H](CN(C)S(=O)(=O)c2cn(C)cn2)O3)cc1	-18
Cc1cc(=O)oc2cc(OC(C)C(=O)Nc3sc4c(c3C(N)=O)CCCC4)ccc12 (configuration not stated)	5
CCCCC/C=C\C/C=C\CCCCCCCC(=O)OC(CO)CO	37
Cn1c(SCC(=O)Nc2c(F)cc(F)cc2Br)nnc1-c1ccco1	-15
COc1ccc(S(=O)(=O)Nc2ccc3c(c2)C(=O)N([C@H](C)CO)C[C@H](C)[C@@H](CN(C)Cc2ccccc2)O3)cc1	15
C[C@@H]1CN([C@@H](C)CO)C(=O)c2cc(NC(=O)CCC(F)(F)F)ccc2O[C@H]1CN(C)Cc1ccc(-c2ccccc2)cc1	56
CC(C)NC(=O)N(C)C[C@H]1Oc2ccc(NC(=O)Cc3cn(C)c4ccccc34)cc2CC(=O)N([C@H](C)CO)C[C@H]1C	8
C[C@H](CO)N1C[C@H](C)[C@H](CN(C)C(=O)NC2CCCCC2)Oc2ccc(NC(=O)Nc3ccc4c(c3)OCO4)cc2C1=O	0
O=C(Cn1cnc2ccccc2c1=O)Nc1ccc(Oc2ccccc2)cc1	13
CC1CC(O)CC(C)(C)C1(O)/C=C/C(CO)O[C@@H]1O[C@H](CO)[C@@H](O)[C@H](O)[C@H]1O (some centres not stated)	15
COc1ccc(C(=O)NCc2n[nH]c(=S)n2C)cc1OC	24
C[C@H]1CN([C@@H](C)CO)C(=O)c2cc(NC(=O)Cc3ccccc3)ccc2O[C@@H]1CN(C)Cc1ccc(Oc2ccccc2)cc1	93*
CCOc1ccc(-n2c(SCC(=O)OC)nnc2-c2ccccc2)cc1	56
O=C(CSc1nnc(-c2ccco2)o1)Nc1sc2c(c1C(=O)Nc1ccccc1)CCCC2	8
O=C(Oc1c(CN2CCOCC2)cc(Cl)c2cccnc12)c1ccc([N+](=O)[O-])cc1	139*
COc1ccc2c(c1)C(C)CC(C)(C)N2C(=O)CSc1nnc(C)s1 (configuration not stated)	12
CCC(Sc1nnnn1-c1ccccc1)C(=O)Nc1ccccc1OC (configuration not stated)	34
Cc1ccc(-c2nn3c(C)nnc3c3ccccc23)cc1S(=O)(=O)NCc1ccco1	60
CCOc1ccc(NC(=O)C2CC(=O)NC(N3CCN(C)CC3)=N2)cc1 (configuration not stated)	5
C/C(=C\CC(C)(C)CCC(=O)c1ccoc1)C(=O)O	-1
O=C(CSc1nnc(-c2ccccn2)n1-c1ccccc1)Nc1ccc2c(c1)OCCO2	-10
CC(C)c1ccc(NC(=O)CSc2nnc(N)s2)cc1	12
C[C@H](CO)N1C[C@H](C)[C@H](CN(C)Cc2ccccc2)Oc2ccc(NC(=O)Nc3cccc4ccccc34)cc2C1=O	15
CCC(Sc1nnc(-c2ccc([N+](=O)[O-])cc2)n1C)C(=O)Nc1ccc(Cl)cc1 (configuration not stated)	22
COc1ccc(CN(C)C[C@H]2Oc3ccc(NS(=O)(=O)c4ccc(C)cc4)cc3CC(=O)N([C@H](C)CO)C[C@H]2C)cc1	33
C[C@H](CO)N1C[C@H](C)[C@H](CN(C)S(=O)(=O)c2ccc(Cl)cc2)Oc2ccc(NS(=O)(=O)c3cn(C)cn3)cc2C1=O	-4
COc1ccc(NC(=O)COc2c(Cl)c(C)c(Cl)c(C)c2Cl)c([N+](=O)[O-])c1	3
C[C@H](CO)N1C[C@H](C)[C@H](CN(C)C(=O)NC2CCCCC2)Oc2ccc(NC(=O)CCCCCC(=O)Nc3ccccc3N)cc2CC1=O	?
O=C(COc1ccc(C(=O)Nc2cc(Cl)ccc2Cl)cc1)Nc1cccc2ccccc12	38
COc1ccc(OC)c(NC(=O)CSc2nc(-c3ccccc3)nc3c2COC(C)(C)C3)c1	39
COc1cc(O)c(C(=O)CCc2ccc(OC)c(OC)c2)c(OC)c1	31
Cc1ccc(S(=O)(=O)N(C)CC(=O)Nc2ccc(C(N)=O)cc2)cc1	29
COc1ccc(NC(=O)Nc2ccc3c(c2)CC(=O)N([C@H](C)CO)C[C@@H](C)[C@H](CN(C)S(=O)(=O)c2cccs2)O3)cc1	-10
N=c1ccccn1CC(O)COc1ccccc1 (configuration not stated)	5
C[C@H](CO)N1C[C@H](C)[C@@H](CN(C)S(C)(=O)=O)Oc2c(NC(=O)C3CC3)cccc2C1=O	-18
C[C@H]1CN([C@@H](C)CO)C(=O)c2cc(NC(=O)CCCN(C)C)ccc2O[C@H]1CN(C)S(=O)(=O)c1ccc(F)cc1	16
Cc1noc(C)c1NC(=O)Nc1cccc2c1O[C@@H](CN(C)Cc1ccc(C(=O)Nc3ccccc3N)cc1)[C@H](C)CN([C@H](C)CO)C2=O	30
Cc1ccc(COc2ccc(I)cc2)cc1	19
C[C@@H]1CN([C@@H](C)CO)C(=O)Cc2cc(NC(=O)Nc3ccc(C(F)(F)F)cc3)ccc2O[C@@H]1CN(C)C(=O)Nc1ccccc1	112*

Some of the entries so far, with bars between the fields.
Structure | NOMO-1 viab
C[C@H](CO)N1C[C@H](C)[C@H](CN(C)C(=O)NC2CCCCC2)Oc2ccc(NC(=O)CCCCCC(=O)Nc3ccccc3N)cc2CC1=O | ?
O=C(COc1ccc(C(=O)Nc2cc(Cl)ccc2Cl)cc1)Nc1cccc2ccccc12 | 38
COc1ccc(OC)c(NC(=O)CSc2nc(-c3ccccc3)nc3c2COC(C)(C)C3)c1 | 39
COc1cc(O)c(C(=O)CCc2ccc(OC)c(OC)c2)c(OC)c1 | 31

Next section
SMILES	NOMO-1 viab
Cc1ccc(S(=O)(=O)Nc2ccc3c(c2)CC(=O)N([C@H](C)CO)C[C@H](C)[C@H](CN(C)Cc2ccncc2)O3)cc1	46
C[C@@H]1CN([C@@H](C)CO)C(=O)Cc2cc(NC(=O)NC3CCCCC3)ccc2O[C@@H]1CN(C)S(=O)(=O)c1ccc(F)cc1	6
C[C@@H]1CCCCO[C@@H](CN(C)C(=O)C2CCCCC2)[C@@H](C)CN([C@H](C)CO)C(=O)c2cc(NC(=O)c3ccccc3)ccc2O1	17
C[C@@H]1CN([C@H](C)CO)C(=O)Cc2cc(NC(=O)Nc3ccc(C(F)(F)F)cc3)ccc2O[C@@H]1CN(C)S(=O)(=O)c1cccs1	74
Cc1noc(C)c1S(=O)(=O)Nc1ccc2c(c1)C(=O)N([C@@H](C)CO)C[C@@H](C)[C@@H](CN(C)Cc1ccc(C(=O)Nc3ccccc3N)cc1)O2	108*
O=C(O)CSc1nc2cc(F)c(F)cc2[nH]1	-6
O=C(CSc1nc2ccccc2nc1N1CCOCC1)NCc1ccc2c(c1)OCO2	10
COC(=O)c1c(NC(=S)Nc2ccc(OC)cc2[N+](=O)[O-])sc2c1CCC(C)C2 (configuration not stated)	-13
O=c1c2ccccc2nnn1CN1CCCCC1	22
Cc1noc(C)c1NC(=O)Nc1ccc2c(c1)C(=O)N([C@@H](C)CO)C[C@@H](C)[C@H](CN(C)C(=O)Nc1ccc(C(F)(F)F)cc1)O2	-4
COc1cc(NC(=O)CCCN2C(=O)c3ccccc3C2=O)cc(OC)c1	3
Cc1noc(C)c1S(=O)(=O)Nc1ccc2c(c1)C(=O)N([C@H](C)CO)C[C@H](C)[C@H](CN(C)Cc1ccccc1)OCCCC[C@@H](C)O2	7
CSc1ncc(Cl)c(C(=O)Nc2sc3c(c2C(=O)NCCc2ccccc2)CCC3)n1	19
C[C@H]1CN([C@@H](C)CO)C(=O)Cc2cc(NC(=O)Cc3ccccc3)ccc2O[C@@H]1CN(C)CC1CC1	-17
C[C@@H]1CN([C@@H](C)CO)C(=O)c2cc(NC(=O)Nc3cccc4ccccc34)ccc2O[C@@H]1CN(C)C(=O)Nc1ccc2c(c1)OCO2	14
Cc1noc(C)c1S(=O)(=O)Nc1cccc2c1O[C@H](CN(C)C(=O)Nc1cccc3ccccc13)[C@H](C)CN([C@@H](C)CO)C2=O	4

Assay outcomes as filed in PubChem.
